ALR inh: inhibitors of human sulfhydryl oxidase ALR; purified ALR, DTT oxidation, H2O2 HRP-luminol luminescence; inhibition, % (concentration not given with the values); 3.8% of 290,000 active;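 active = mean and each replicate at 75% or more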;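 note: stock transfer was 7.5 nL into about 7.5 µL; 0% = neutral wells and 100% = wells with inactivated enzyme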
HNF4A DNA FP: change in binding of human HNF4 alpha to DNA; activity change, % at 10 µM; P41235; 0.3% of 360,000 active; AID 1224865; HNF4a-FITC DNA binding, fluorescence polarization, 1 h; in the data active = activity change above about 30%, passing the limit was not always enough;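 note: controls were the assay level and a saturating level of protein; the project sought stronger binding though the title names inhibitors; some compounds called inactive have numbers as strong as hits; positive values seem to mean higher polarization but the record does not say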
UCH37 DUB inh: human UCH37 deubiquitinating enzyme inhibition. Q9Y5K5. purified proteasome/UCH37, Ub-AMC cleavage fluorescence. inhibition, % (concentration not given with the values). 0.33% of 330,000 active. AID 588478;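 active = mean of two replicates above 20%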;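 note: 0% = compound-free wells with enzyme and 100% = wells lacking proteasome; stock transfer was 100 nL into about 20 µL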
Target sequence (Q9Y5K5 whole entry, looked up): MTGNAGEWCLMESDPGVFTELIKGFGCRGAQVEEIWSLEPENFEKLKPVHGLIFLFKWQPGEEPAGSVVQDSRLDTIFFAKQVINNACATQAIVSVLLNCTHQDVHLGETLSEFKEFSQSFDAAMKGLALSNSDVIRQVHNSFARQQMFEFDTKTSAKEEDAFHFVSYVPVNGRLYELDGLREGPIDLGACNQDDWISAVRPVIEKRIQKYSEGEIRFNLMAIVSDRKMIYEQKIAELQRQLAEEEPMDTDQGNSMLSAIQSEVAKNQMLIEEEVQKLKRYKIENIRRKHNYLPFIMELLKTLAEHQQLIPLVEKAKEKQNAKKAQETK
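System: Proteasome-associated human UCH37 deubiquitinase; Input: 0.15 nM proteasome in added enzyme buffer; Also added: Ub-AMC substrate from 1 µM stock; Incubation: 30 min compound-proteasome preincubation then 25 min substrate reaction, room temperature; Detection: fluorescence, ex 355 nm, em 460 nm; Read-out: % inhibition of Ub-AMC cleavage fluorescence; Benchmarks: no-proteasome and no-compound wells.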
Beta2AR agonist: activates human beta-2 adrenergic receptor causing internalization; Am2.2-beta2AR cells, FAP receptor internalization, flow cytometry; reference of the scale not given here; P07550; 0.43% of 340,000 active; response, % (concentration not given with the values);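 active = response above a set limit, near 3 SD of response in nonfluorescent compounds, cut at about 42% in these data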;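 note: stock transfer was 100 nL into about 11 µL; a reference agonist was the positive control; negative values mostly stem from fluorescent compounds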
Target sequence (P07550 whole entry, looked up): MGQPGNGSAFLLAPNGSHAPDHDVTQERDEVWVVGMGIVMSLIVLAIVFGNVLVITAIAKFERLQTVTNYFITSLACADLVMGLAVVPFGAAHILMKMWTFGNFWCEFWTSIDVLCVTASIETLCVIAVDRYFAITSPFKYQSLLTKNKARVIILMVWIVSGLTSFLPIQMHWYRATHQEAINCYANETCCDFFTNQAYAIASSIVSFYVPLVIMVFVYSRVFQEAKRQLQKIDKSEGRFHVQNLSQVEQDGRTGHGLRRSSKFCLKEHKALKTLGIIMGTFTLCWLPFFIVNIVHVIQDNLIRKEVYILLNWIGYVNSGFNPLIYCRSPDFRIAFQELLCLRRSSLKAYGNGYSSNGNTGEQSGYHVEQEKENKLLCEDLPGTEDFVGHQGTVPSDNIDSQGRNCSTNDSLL
Ecoli growth: blocks Escherichia coli growth | 0.21% of 330,000 active | OD600 absorbance (no concentration beside the values) | OD600, 23 h; hits give low values;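 active = OD600 absorbance below the run mean of sample wells minus 3.6 SD, in any replicate, cut at about 0.56 in these data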;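 note: stock transfer was 300 nL into about 60 µL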
FGF22 binding: FGF22 (human) thermal shift binding; Q9HCT0; recombinant FGF22 thermal shift, SYPRO orange fluorescence; percent of sucrose octasulfate shift, DMSO zero; calls only at 9.99 µM; 1.5% of 340,000 active; AID 651658;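 active = melting point raised past a set limit in the mean and every replicate; three in four hits are not shown here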
Target sequence (Q9HCT0 whole entry, looked up): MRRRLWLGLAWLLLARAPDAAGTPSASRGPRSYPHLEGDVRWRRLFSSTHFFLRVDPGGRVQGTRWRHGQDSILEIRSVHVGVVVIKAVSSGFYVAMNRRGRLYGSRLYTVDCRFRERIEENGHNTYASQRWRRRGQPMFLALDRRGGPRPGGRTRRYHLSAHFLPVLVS
rRNA inh HTS: inhibits bacterial ribosomal RNA function over humanized ribosomes | E. coli WT GFP vs humanized-ribosome RFP mutants, fluorescence, 24 h; hits give low values; DMSO median 0, no signal -100 | AID 720706 | GFP signal change (wild-type ribosome), % (concentration not given with the values) | 1.6% of 350,000 active;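 active = significant combined selectivity score with lowered wild-type GFP, culture density cut under 30%, mutant RFP and density less affected; inactive = any of these conditions unmet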; note: one replicate is shown; some compounds called inactive have numbers as strong as hits
rRNA inh HTS OD600: recorded beside rRNA inh HTS, whose call it bears; OD600 change, %; measured here: OD600 growth;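 optical density of the mix in the first replicate; 0 = DMSO median and -100 = no signal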
rRNA inh HTS RFP: further read-out of rRNA inh HTS, marked with its call; RFP signal change, %; measured here: RFP humanized mutant strains;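 first replicate; 0 = DMSO median and -100 = no signal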
* marks the source's active call; other numbers are inactive results; i = inactive; · = no result given; & = joins results of further samples. The list is partial, so the mix of outcomes need not match the whole.

Every second line gives: ALR inh | HNF4A DNA FP | UCH37 DUB inh | Beta2AR agonist | Ecoli growth | FGF22 binding | rRNA inh HTS | rRNA inh HTS OD600 | rRNA inh HTS RFP
1: CCc1nnc(SCC(=O)Nc2ccc(N3CCN(S(C)(=O)=O)CC3)cc2)o1
  -14 | -1.6 | -0.6 | 4 | 0.67 | i | 3 | 5 | 2.8
2: O=CC1=C(N2CCOCC2)/C(=C/c2ccc(Cl)cc2)CC1
  · | -0.3 | 9.6 | 4 | 0.69 | i | 7 | 2 | 12
3: C[C@@H]1CN([C@H](C)CO)C(=O)c2cc(NC(=O)Cc3ccccc3)ccc2O[C@H]1CN(C)Cc1ccc(Oc2ccccc2)cc1
  -2 | -1.3 | 6.6 | -5 | 0.75 | i | 5&9 | 3&-5 | 2.7&20
4: Cc1ccc(Nc2nc(C(=O)N3CCC(C(=O)NC(C)C)CC3)cs2)cc1
  3 | 0.4 | 3.5 | -6 | 0.68 | i | -7 | -9 | -2.6
5: Cc1onc(-c2ccccc2)c1C(=O)c1c[nH]c(C(=O)NCc2ccccn2)c1
  -7 | -0.1 | 0.7 | -3 | 0.65 | i | 2 | -7 | -0.5
6: COc1ccc(S(=O)(=O)N2CCC(C(=O)NCC(=O)Nc3c(C)cccc3C)CC2)cc1OC
  · | -1.4 | 1.3 | 18 | 0.66 | i | 5 | 12 | 1.2
7: CCC(C)n1c(-c2cccc(S(=O)(=O)N(CC)CC)c2)n[nH]c1=S (configuration not stated)
  71 | 3.3 | 2.4 | -5 | 0.64 | i | -12 | -7 | 0.6
8: Cc1cc(C)cc(N(CC(=O)O)S(=O)(=O)c2c(C)noc2C)c1
  -2 | 1.3 | 2.2 | 1 | 0.71 | i | 8 | 9 | 4.2
9: CCCCC(=NCCc1c(C)[nH]c2ccc(OC)cc12)C1=C(O)CC(c2ccccc2)CC1=O (configuration not stated)
  · | -5.7 | 5.4 | 27 | 0.75 | · | 10 | 13 | 4.8
10: CC(C)Oc1ccc(C(CC(=O)N(C)CCC#N)c2ccc(F)cc2)cc1 (configuration not stated)
  -43 | 1.5 | 0.5 | -11 | 0.68 | · | · | · | ·
11: COc1ccc(N2CCN(Cc3cc(=O)oc4cc(C)c(Cl)cc34)CC2)cc1
  -1 | 1.4 | 5.3 | 6 | 0.77 | · | · | · | ·
12: CCCCC(=O)Nc1cccc(NC(=O)c2ccc3c(c2)OCO3)c1
  -2 | 1.4 | 0.5 | 0 | 0.64 | · | · | · | ·
13: COc1ccc(C(=O)Nc2cc3c(cc2C#N)OCO3)cc1S(=O)(=O)N1CCN(C)CC1
  -20 | 0.9 | 0.7 | 10 | 0.66 | i | 7 | 7 | 0.6
14: CC(NC(=O)COC(=O)/C=C/c1ccc([N+](=O)[O-])cc1)c1ccccc1 (configuration not stated)
  -10 | 2.5 | 5.3 | -1 | 0.72 | i | 11 | 5 | -1.0
15: CCOC(=O)/C(=C\c1ccc(C)cc1)NC(=O)c1ccccc1
  2 | -1.9 | -0.1 | 16 | · | i | 4 | 0 | -0.7
16: COc1cc(C(=O)COC(=O)c2ccco2)cc(OC)c1OC
  -7 | 4.4 | 4.3 | -2 | 0.69 | i | -2 | 5 | -0.1
17: Cc1nn(Cc2c(Cl)cccc2Cl)c(C)c1C(=O)NCc1ccc(C)n1C
  0 | -6.2 | 3.6 | -1 | 0.73 | · | · | · | ·
18: CC(=O)Nc1ccc2c(c1)Cc1cc(N3C(=O)C=CC3=O)ccc1-2
  · | -3.5 | 3.3 | 44* | 0.64 | i | -28* | 8.7* | -3.1*
19: S=C(NCc1ccco1)N1CCN(c2cccc(Cl)c2)CC1
  -3 | -1.5 | 3.3 | -4 | 0.68 | i | -44 | -72 | -2.9
20: O=C(Cc1ccc(F)cc1)Nc1cc(S(=O)(=O)N2CCOCC2)ccc1N1CCCCC1
  · | 1.0 | · | · | · | · | -7 | 2 | 2.9

The final 2 records of the section above come first, to join the parts.
Every second line gives: ALR inh | HNF4A DNA FP | UCH37 DUB inh | Beta2AR agonist | Ecoli growth | FGF22 binding | rRNA inh HTS | rRNA inh HTS OD600 | rRNA inh HTS RFP
19: S=C(NCc1ccco1)N1CCN(c2cccc(Cl)c2)CC1
  -3 | -1.5 | 3.3 | -4 | 0.68 | i | -44 | -72 | -2.9
20: O=C(Cc1ccc(F)cc1)Nc1cc(S(=O)(=O)N2CCOCC2)ccc1N1CCCCC1
  · | 1.0 | · | · | · | · | -7 | 2 | 2.9
21: Cn1c(Cc2ccc3c(c2)OCO3)nnc1SCC(=O)N1CCc2ccccc2C1
  -4 | 0.5 | 5.2 | 2 | 0.69 | · | · | · | ·
22: CCOC(=O)/C(C#N)=C/Nc1ccccc1OC
  0 | -0.3 | 8.3 | 7 | 0.71 | · | · | · | ·
23: CCCCn1c(=O)[nH]c(=O)c2c1nc(-c1ccccc1F)n2Cc1ccccc1
  10 | -1.4 | 1.5 | 10 | 0.69 | i | -26* | -14* | 0.7*
24: Cc1cc(C(=O)NCC(c2cccs2)N2CCOCC2)ccc1[N+](=O)[O-] (configuration not stated)
  -1 | 3.1 | 1.2 | -9 | 0.71 | i | 2 | 8 | 1.3
25: CC(=O)Nc1ccc(S(=O)(=O)NC2(C(F)(F)F)NC(=O)N(C3CCCCC3)C2=O)cc1 (configuration not stated)
  -1 | 0.8 | -2.6 | -1 | 0.6 | · | · | · | ·
26: COc1ccc(C(=O)N2CC(c3ccccc3)CC2=O)cc1 (configuration not stated)
  0 | 4.3 | 0.8 | 3 | 0.65 | i | 16 | 9 | 1.4
27: CC(C)NC(=O)N(O)C1N(C(C)C)C(=O)N(Cc2ccc3c(c2)OCO3)C1(C)C (configuration not stated)
  -6 | 0.2 | 5.0 | 14 | 0.65 | i | 2 | 3 | 0.3
28: CC(=O)n1c2ccccc2c2nc(NC(C)C)sc21
  99* | -3.0 | 3.3 | -18 | 0.74 | · | · | · | ·
29: CCC(C)c1ccccc1OCC(=O)NN1C(=O)c2ccccc2C1=O (configuration not stated)
  2 | 1.3 | 5.5 | -5 | 0.69 | i | -9 | -10 | -1.4
30: CCOC(=O)C1CCCN(Cc2nc(N)nc(Nc3ccc(C)cc3)n2)C1 (configuration not stated)
  -7 | 4.5 | 7.3 | -2 | 0.73 | · | · | · | ·
31: Cc1nc2ccccn2c1-c1ccnc(=S)[nH]1
  100* | -3.8 | 12 | -1 | 0.67 | i | · | · | ·
32: CC1(C)Cc2nc3sc4c(SCC(=O)NCc5ccccc5)ncnc4c3cc2CO1
  -1 | -2.0 | -9.7 | 21 | 0.66 | · | · | · | ·
33: CCc1c(C)nc2c(Br)cccc2c1SCCC#N
  -2 | 0.5 | 4.3 | -1 | 0.71 | i | -31 | -38 | -8.6
34: O=C(COc1cccc(C(F)(F)F)c1)NNC(=O)Cn1c(=O)cnc2ccccc21
  -44 | -2.8 | · | -5 | · | i | 2 | 15 | 0.9
35: Cc1cccnc1NC(=O)c1ccc(Br)o1
  · | 0.6 | · | 6 | · | i | 7 | -4 | 3.6
36: COC(=O)Cn1c(CCS(=O)(=O)c2ccc(C)cc2)nc2ccccc21
  3 | 1.5 | -2.0 | 2 | 0.69 | · | · | · | ·
37: Cn1cncc1C#Cc1c(C=O)n(C)c2ccccc12
  0 | 0.7 | -7.1 | 21 | 0.7 | i | -7 | 3 | 5.5
38: COC(=O)c1nn(-c2ccc(OC)cc2)c(=O)cc1Sc1ccc(C)cc1
  -29 | -0.1 | 2.6 | -3 | 0.7 | i | 7 | 11 | -1.1
39: CN(C)c1ccc(O)c2c1CC1CC3[C@@H](N(C)C)C(=O)C(C(N)=O)C(=O)[C@]3(O)C(=O)C1C2=O (some centres not stated)
  · | -9.3 | 5.5 | 4 | · | i | · | · | ·
40: Cc1cccc(S(=O)(=O)Nc2ccc(S(=O)(=O)Nc3nccs3)cc2)c1
  0 | -0.8 | 2.2 | -16 | 0.72 | i | 6 | -23 | 2.8
41: O=C(NNC(=O)c1nn(-c2ccc(F)cc2)ccc1=O)c1ccc(C(F)(F)F)cc1
  -2 | 0.5 | 2.8 | 4 | 0.71 | i | 16 | 9 | 1.6
42: CCN(CC)CCNC(=O)c1ccc(NC(=O)COc2ccc3c(c2)CCC3)cc1
  2 | 2.5 | 2.5 | -3 | 0.67 | i | · | · | ·
43: CCCCSc1nc2sc3c(c2c(=O)[nH]1)CCC3
  -11 | -0.6 | -3.0 | 6 | 0.73 | · | · | · | ·
44: CC1(C)CC(NCc2ccccc2)CCO1 (configuration not stated)
  -14 | 1.6 | 1.5 | -4 | 0.68 | i | 14 | 5 | -2.4
45: CCOc1ccc(C(CCc2ccccc2)NC(=O)c2ccc(OC)c(OC)c2)cc1OCC (configuration not stated)
  -14 | 1.5 | 1.0 | 3 | 0.73 | · | · | · | ·
46: O=S(=O)(c1ccccc1)c1nc(-c2ccco2)oc1NCCN1CCOCC1
  17 | 2.5 | 5.3 | -3 | 0.65 | i | 7 | 3 | -8.2
47: O=C(Cn1cc([N+](=O)[O-])cn1)N1CCN(Cc2ccc3c(c2)OCO3)CC1
  -24 | 5.8 | 4.3 | 6 | 0.69 | i | 1 | 8 | -2.5
48: O=C1CN(C(=O)c2ccc(F)cc2)c2ccccc2N1
  2 | 1.3 | -2.7 | -4 | 0.7 | i | 5 | -1 | 4.1
49: CCc1ccc(C(CC(=O)O)N2Cc3ccccc3C2=O)cc1 (configuration not stated)
  -3 | -6.7 | 3.0 | 14 | 0.69 | i | 9 | 3 | -1.7
50: Cc1nc2ccccc2nc(C)c1=NOCc1ccc(Cl)cc1Cl
  -4 | 5.4 | 5.3 | -3 | 0.67 | · | · | · | ·
51: O=C(NCCc1ccccc1)c1ccc(Br)o1
  -2 | -2.9 | 2.5 | -1 | 0.66 | i | 11 | 13 | -0.7
52: CC(C)(C)NC(=O)C(c1ccc(O)cc1)N(Cc1ccco1)C(=O)CCC(=O)Nc1ccccn1 (configuration not stated)
  3 | 1.1 | 4.4 | -15 | 0.71 | i | 5 | 6 | -2.8
53: O=C(CSc1nncn1-c1ccccc1)NC1CCCC1
  0 | 2.0 | 2.1 | -11 | 0.7 | i | 3 | 3 | -2.3
54: O=C(c1ccccc1)N1N=C(c2ccc(F)cc2)CC1(O)C(F)(F)F (configuration not stated)
  -3 | 0.2 | 1.3 | 5 | 0.64 | i | -5 | -5 | 0.4
55: COc1ccc(CN2CCC(n3nccc3NC(=O)CCOc3ccccc3)CC2)cc1C
  -1 | 2.9 | 3.0 | -2 | 0.7 | i | -1 | -5 | 3.3
56: Cc1cc2nc3c(c(=O)n2[nH]1)CCCC3
  · | 1.1 | 2.3 | 2 | 0.7 | · | · | · | ·
57: CCOc1ccccc1/C=N/NC(=O)c1cccc(S(=O)(=O)N(CC)CC)c1
  -7 | -6.6 | · | 2 | · | i | -6 | -2 | -2.7
58: Cc1ccc(/C=N/n2c(COc3ccccc3)n[nH]c2=S)cc1
  4 | -0.5 | · | -9 | · | i | 6 | 13 | 3.4
59: CN(C)CCNC(=O)Cc1ncc(C(F)(F)F)cc1Cl
  0 | -1.8 | 2.6 | -2 | 0.72 | i | 2 | 9 | 2.5
60: CC(NC(=O)c1ccc(Br)o1)c1ccc(-n2ccnc2)cc1 (configuration not stated)
  -6 | -2.4 | 0.1 | -8 | 0.71 | i | 3 | -10 | -0.2

A few values from above:
rRNA inh HTS OD600 with no. 51 is entered as 13
rRNA inh HTS RFP with no. 14 is entered as -1.0
HNF4A DNA FP with no. 40 is entered as -0.8

High-throughput results: PubChem, several laboratories
